From PubChem BioAssay
K1F lysis inhibition – inhibition of K1F phage lysis, E. coli UTI89, bacterial capsule biogenesis inhibitors, alamar blue (AID 488966); E. coli UTI89 K1F phage lysis, alamar blue, 2 h; higher % means a stronger effect; inhibition, % at 100 µM; hits with a dose series show IC50 in µM; actives 0.02% (n = 340,000);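 active = phage lysis inhibition, versus mean bacterial control, above a set limit; inconclusive = no clear call, values can overlap the other calls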;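 note: capsule biogenesis inhibitors block K1F phage lysis so surviving cells raise fluorescence; higher fluorescence means more inhibition of phage lysis; actives were called in the ten point dose series up to 300 µM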
GPR55 antagonists – GPR55 antagonists blocking LPI-driven arrestin recruitment, primary screen, imaging, U2OS, beta-arrestin-GFP, LPI agonist (AID 2013); G-protein coupled receptor 55 (Homo sapiens); U2OS GPR55 beta-arrestin-GFP translocation imaging, LPI antagonism; higher % means a stronger effect; inhibition, % at 10 µM; hits with a dose series show IC50 in µM; actives 0.13% (n = 290,000);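 active = spots per cell inhibited over 60%, with over 100 cells counted and total cytoplasm intensity under 500,000; inconclusive = wells with under 100 cells, flagged as likely toxic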;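 note: U2OS cells stably carrying GPR55 and arrestin-GFP stimulated by 5 µM LPI near EC80; imaged beta-arrestin-GFP aggregate spots per cell after agonist stimulation; plate controls were LPI-stimulated DMSO wells for no effect and DMSO wells without LPI for full effect; some results filed as inactive read as strong as hits; confirmed hits need IC50 under 10 µM and bright autofluorescent wells are also inconclusive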
GPR35 antagonists – GPR35 antagonists blocking zaprinast-driven arrestin recruitment, primary screen, imaging, U2OS, beta-arrestin-GFP, zaprinast agonist (AID 2058) | inhibition, % at 10 µM, or IC50 in µM where a hit was titrated | U2OS GPR35 beta-arrestin-GFP translocation imaging, zaprinast antagonism; higher % means a stronger effect | actives 0.052% (n = 290,000) | G-protein coupled receptor 35 (Homo sapiens);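 active = inhibition of at least 50% with at least 30 cells and total cytoplasm GFP at most 10,000,000; inconclusive = under 30 cells or total GFP of 10,000,000 plus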
GPR55 activation – GPR55 agonists via beta-arrestin recruitment, primary screen, imaging, U2OS cells, beta-arrestin-GFP redistribution (AID 1961) | activation, % at 10 µM; hits with a dose series show EC50 in µM | G-protein coupled receptor 55 (Homo sapiens) | U2OS GPR55 beta-arrestin-GFP redistribution imaging; higher % means a stronger effect | actives 0.048% (n = 290,000);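 active = activation above 40% with more than 50 cells counted in the well; inconclusive = wells holding fewer than 50 cells, flagged as toxic or sparse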;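 note: U2OS osteosarcoma cells stably expressing GPR55 and beta-arrestin-GFP; plate controls were DMSO negative control for no effect and LPI positive control for full effect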
MgcRacGAP inhibition – MgcRacGAP GTPase-activating activity inhibitors, confirmation, biochemical, ADP Hunter fluorescence; inhibition, % at 30 µM; hits with a dose series show IC50 in µM; actives 0.6% (n = 340,000); AID 624330, 2012; MgcRacGAP-stimulated Rac1 GTP hydrolysis, ADP Hunter fluorescence; higher % means a stronger effect; GST-tagged Rac1 F28L mutant substrate; Rac GTPase-activating protein 1 (Homo sapiens);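 active = first-screen hits whose inhibition reached a set limit at any dose in the follow-up dose series; inconclusive = inhibition above the set first-screen limit but never retested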;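 note: fluorescence reports GDP produced by GAP-driven GTP hydrolysis; strong numbers were not always called active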
The depositor's hits bear a star.

COc1ccc2c(c1)C13CCCC[C@@H]1C(C2)N(C)CC3 (stereo partly specified) was read as K1F lysis inhibition inconclusive, GPR55 antagonists 11%, GPR35 antagonists -7%, GPR55 activation -0.1% and MgcRacGAP inhibition 4%.
`O=C(Nc1ccc(F)cc1)N1CC2CC(C1)c1cccc(=O)n1C2` (stereo unspecified) gave K1F lysis inhibition 0.6%, GPR55 antagonists -2%, GPR35 antagonists 1%, GPR55 activation -0.1% and MgcRacGAP inhibition 4%.
Screening CN(C)[C@@H]1C(=O)C(C(N)=O)=C(O)[C@@]2(O)C(=O)C3=C(O)c4c(O)cccc4[C@@](C)(O)C3C[C@@H]12 (stereo partly specified) returned K1F lysis inhibition -16% and MgcRacGAP inhibition 17%.
For C[C@]12CCC3=C4CCC(=O)C=C4CC[C@H]3C1CC[C@@H]2O (stereo partly specified) the results were K1F lysis inhibition 0.1%, GPR55 antagonists -5%, GPR35 antagonists 0%, GPR55 activation 0.0% and MgcRacGAP inhibition 12%.
Screening CC(=O)OC[C@]12CCC(C)=C[C@H]1O[C@@H]1[C@H](O)[C@@H](OC(C)=O)[C@@]2(C)[C@]12CO2 returned K1F lysis inhibition -0.8%, GPR55 antagonists 4%, GPR35 antagonists -11%, GPR55 activation 0.0% and MgcRacGAP inhibition -4%.
OC(Cn1c2ccccc2c2ccccc21)C[n+]1ccccc1 (stereo unspecified) was read as K1F lysis inhibition 0.3%, GPR55 antagonists 3%, GPR35 antagonists -12%, GPR55 activation -0.1% and MgcRacGAP inhibition 10%.
`CC(=O)Nc1ccccc1C(=O)OCC(=O)c1ccc2ccccc2c1` gave K1F lysis inhibition 0.1%, GPR55 antagonists 8%, GPR35 antagonists 12%, GPR55 activation 0.0% and MgcRacGAP inhibition 2%.
For CN1C(=O)NC(=O)/C(=C\C=C\c2ccccc2[N+](=O)[O-])C1=O the results were GPR55 antagonists 30%, GPR35 antagonists 3% and GPR55 activation -0.3%.
Screening CC(C)[C@H]1C(=O)O[C@H](C(C)C)C(=O)N(C)[C@@H](C(C)C)C(=O)O[C@H](C(C)C)C(=O)N(C)[C@@H](C(C)C)C(=O)O[C@H](C(C)C)C(=O)N1C returned K1F lysis inhibition 3.5%, GPR55 antagonists 3%, GPR35 antagonists -21%, GPR55 activation -0.2% and MgcRacGAP inhibition 0%.
C=CCN1C(=O)c2ccccc2Sc2ccc(C(=O)N3CCC4(CC3)OCCO4)cc21 was read as K1F lysis inhibition 0.0%, GPR55 antagonists 13%, GPR35 antagonists 16%, GPR55 activation 0.2% and MgcRacGAP inhibition 8%.
CCOc1ccc(-c2cc(C)[n+](CCN(CC)CC)c(-c3ccc(OCC)cc3)c2)cc1 was read as K1F lysis inhibition -0.5%, GPR55 antagonists -8%, GPR35 antagonists 8%, GPR55 activation -0.1% and MgcRacGAP inhibition 4%.

3 structures already listed, arranged by number of heavy atoms, descending:
Screening CN(C)[C@@H]1C(=O)C(C(N)=O)=C(O)[C@@]2(O)C(=O)C3=C(O)c4c(O)cccc4[C@@](C)(O)C3C[C@@H]12 (stereo partly specified) returned K1F lysis inhibition -16% and MgcRacGAP inhibition 17%.
For CN1C(=O)NC(=O)/C(=C\C=C\c2ccccc2[N+](=O)[O-])C1=O the results were GPR55 antagonists 30%, GPR35 antagonists 3% and GPR55 activation -0.3%.
For C[C@]12CCC3=C4CCC(=O)C=C4CC[C@H]3C1CC[C@@H]2O (stereo partly specified) the results were K1F lysis inhibition 0.1%, GPR55 antagonists -5%, GPR35 antagonists 0%, GPR55 activation 0.0% and MgcRacGAP inhibition 12%.

Part of the list above in order of SMILES length, low to high.
OC(Cn1c2ccccc2c2ccccc21)C[n+]1ccccc1 (stereo unspecified) was read as K1F lysis inhibition 0.3%, GPR55 antagonists 3%, GPR35 antagonists -12%, GPR55 activation -0.1% and MgcRacGAP inhibition 10%.
For CN1C(=O)NC(=O)/C(=C\C=C\c2ccccc2[N+](=O)[O-])C1=O the results were GPR55 antagonists 30%, GPR35 antagonists 3% and GPR55 activation -0.3%.
Screening CC(=O)OC[C@]12CCC(C)=C[C@H]1O[C@@H]1[C@H](O)[C@@H](OC(C)=O)[C@@]2(C)[C@]12CO2 returned K1F lysis inhibition -0.8%, GPR55 antagonists 4%, GPR35 antagonists -11%, GPR55 activation 0.0% and MgcRacGAP inhibition -4%.
Screening CN(C)[C@@H]1C(=O)C(C(N)=O)=C(O)[C@@]2(O)C(=O)C3=C(O)c4c(O)cccc4[C@@](C)(O)C3C[C@@H]12 (stereo partly specified) returned K1F lysis inhibition -16% and MgcRacGAP inhibition 17%.
Screening CC(C)[C@H]1C(=O)O[C@H](C(C)C)C(=O)N(C)[C@@H](C(C)C)C(=O)O[C@H](C(C)C)C(=O)N(C)[C@@H](C(C)C)C(=O)O[C@H](C(C)C)C(=O)N1C returned K1F lysis inhibition 3.5%, GPR55 antagonists 3%, GPR35 antagonists -21%, GPR55 activation -0.2% and MgcRacGAP inhibition 0%.

The list is partial; the hit share may differ from the screen's.
